# Bioassay records deposited in PubChem by Broad Institute.
# UUG fidelity – alters start codon recognition fidelity in yeast. activity score, % at 18.7 µM. hit rate 0.13% among 350,000. AID 602363. S. cerevisiae UUG-firefly luciferase reporter, luminescence/redox ratio;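 active means replicate mean at a twofold rise or more, about +100% in these data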;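 further: firefly luciferase made from a UUG start codon reports start codon fidelity; reporter light over untreated wells divided by growth signal over untreated wells; some hits fall short of that in this replicate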
# HIV Env fusion – blocks HIV Env-driven cell-cell fusion; HeLa-JRFL Env/CEM21 cell fusion, luciferase; inhibition, % at 12.3 µM; hit rate 1.1% among 360,000;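 active means mean replicate inhibition score of at least 50 and every replicate individually at or above 50; inconclusive means only one of the two criteria met; inactive means mean below 50 and not all replicates reaching 50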;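 further: 0% = plate neutral controls and 100% = maraviroc near 300 nM; one replicate is shown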
# Numbers without * were called inactive; u = inconclusive; [ ] = remark or other dose. This is a subset; count on the stated rates, not on these rows.
SMILES,UUG fidelity,HIV Env fusion
O=C1O[C@@H](c2ccccc2)[C@@H](c2ccccc2)N2[C@@H](c3ccccc3OCCO)[C@]3(C(=O)Nc4ccc(C#CC5(O)CCCCCC5)cc43)[C@@H](C(=O)N3CCCCCCC3)[C@H]12,-15,-20[16.7 µM]
O=C(CN1CCOCC1)NCC[C@H]1CC[C@@H](NC(=O)Nc2ccc(Cl)cc2)[C@H](CO)O1,12,-12[16.7 µM]
C[C@@H]1CN([C@@H](C)CO)C(=O)c2cc(-c3ccc(F)cc3)cnc2O[C@H]1CN(C)C(=O)C1CCC1,11,5[16.7 µM]
Cc1ccccc1S(=O)(=O)N1C[C@@H](O)COC[C@H]2O[C@H](CC(=O)NCc3ccccc3Cl)CC[C@@H]21,16,0[16.7 µM]
CC(=O)Nc1ccc2c(c1)C(=O)N(C)[C@@H]1CC[C@@H](CC(=O)NCCCN3CCOCC3)O[C@@H]1CO2,-3,-5[16.7 µM]
C[C@@H]1CN([C@H](C)CO)S(=O)(=O)c2ccc(Br)cc2O[C@@H]1CN(C)S(C)(=O)=O,24,7[16.7 µM]
C[C@@H]1CN([C@H](C)CO)S(=O)(=O)c2ccc(C#CCN(C)C)cc2O[C@@H]1CN(C)C(=O)C1CCC1,-9,-16[16.7 µM]
CC(C)NC(=O)N(C)C[C@H]1Oc2ncc(C#CCC3CCCC3)cc2C(=O)N([C@H](C)CO)C[C@@H]1C,-1,-27[16.7 µM]
CO[C@H]1CN(C)C(=O)c2cc(NS(C)(=O)=O)ccc2OC[C@H](C)N(C(=O)CC2CC2)C[C@H]1C,51,-1[16.7 µM]
CO[C@@H]1CN(C)C(=O)c2cc(NC(=O)C3CCOCC3)ccc2OC[C@@H](C)NC[C@@H]1C,-8,-8[16.7 µM]
C[C@H]1CN([C@@H](C)CO)S(=O)(=O)c2ccc(C3=CCCC3)cc2O[C@@H]1CN(C)C(=O)C1CCOCC1,9,13[16.7 µM]
COc1ccccc1-c1cnc2c(c1)C(=O)N([C@H](C)CO)C[C@H](C)[C@H](CN(C)C(=O)CC1CC1)O2,11,12[16.7 µM]
C[C@H]1CN([C@@H](C)CO)C(=O)c2cc(NS(=O)(=O)c3ccc(Cl)cc3)ccc2O[C@H]1CN(C)Cc1ccc(C(=O)Nc2ccccc2N)cc1,37,-82[16.7 µM]
CC(=O)N(C)C[C@@H]1Oc2cc(-c3ccc(F)cc3)ccc2S(=O)(=O)N([C@@H](C)CO)C[C@H]1C,11,-28[16.7 µM]
CN(C)CC(=O)Nc1ccc2c(c1)[C@H]1C[C@@H](CC(=O)NCc3ccc4c(c3)OCO4)O[C@H](CO)[C@H]1O2,-10,0[16.7 µM]
C[C@@H]1CCCCO[C@@H](CN(C)C(=O)C2CCCCC2)[C@@H](C)CN([C@H](C)CO)C(=O)c2cc(NC(=O)Nc3cccc4ccccc34)ccc2O1,11,-23[16.7 µM]
CC(C)C#Cc1cnc2c(c1)C(=O)N([C@H](C)CO)C[C@@H](C)[C@H](CN(C)S(=O)(=O)c1cn(C)cn1)O2,2,-8[16.7 µM]
CC(C)CC#Cc1ccc2c(c1)O[C@@H](CN(C)Cc1ccccc1)[C@@H](C)CN([C@@H](C)CO)S2(=O)=O,16,37[16.7 µM]
C[C@@H]1CCCCO[C@@H](CN(C)Cc2ccccc2)[C@@H](C)CN([C@H](C)CO)C(=O)c2cc(NC(=O)C3CCCCC3)ccc2O1,-5,-12[16.7 µM]
Cc1ccc(-c2ccc3c(c2)O[C@H](CN(C)C(=O)Nc2ccc(C(F)(F)F)cc2)[C@H](C)CN([C@@H](C)CO)S3(=O)=O)cc1,-19,7[16.7 µM]
C[C@@H]1CN([C@H](C)CO)C(=O)c2cc(NS(=O)(=O)c3ccc(F)cc3)ccc2O[C@@H]1CN(C)Cc1ccc(C(=O)O)cc1,-2,13[16.7 µM]
C[C@H](CO)N1C[C@H](C)[C@H](CN(C)C(=O)Cc2ccccc2)Oc2cc(C#CC3CCCC3)ccc2S1(=O)=O,-8,-17[16.7 µM]
C[C@H](CO)N1C[C@H](C)[C@H](CN(C)Cc2ccncc2)OCCCC[C@H](C)Oc2ccc(NS(=O)(=O)c3ccccc3)cc2C1=O,3,-6[16.7 µM]
Cc1noc(C)c1S(=O)(=O)N(C)C[C@H]1OCCCC[C@H](C)Oc2ccc(N(C)C)cc2C(=O)N([C@@H](C)CO)C[C@@H]1C,14,15[16.7 µM]
C[C@@H]1CN([C@@H](C)CO)C(=O)Cc2cc(NC(=O)CCCCCC(=O)Nc3ccccc3N)ccc2O[C@@H]1CN(C)C(=O)Nc1ccccc1,9,-3[16.7 µM]
O=C(C[C@@H]1CC[C@@H](NC(=O)c2ccccc2)[C@H](CO)O1)NCc1ccncn1,-8,3[16.7 µM]
COc1ccc(S(=O)(=O)Nc2ccc3c(c2)CC(=O)N([C@@H](C)CO)C[C@H](C)[C@@H](CN(C)Cc2ccc(C(=O)O)cc2)O3)cc1,-35,-4[16.7 µM]
COC(=O)C[C@H]1CC[C@@H](NC(=O)c2ccccc2)[C@@H](CO)O1,-13,25[16.7 µM]
Cc1noc(C)c1NC(=O)Nc1ccc2c(c1)CC(=O)N([C@H](C)CO)C[C@H](C)[C@@H](CN(C)C(=O)Nc1ccc3c(c1)OCO3)O2,57,1[16.7 µM]
CN(C)C(=O)c1ccc(-c2ccc([C@@H]3[C@@H](C#N)N(C(=O)C4CCCCC4)[C@H]3CO)cc2)cc1,22,-2[16.7 µM]
O=C(N[C@H]1CC[C@H](CCNC(=O)C2CCC2)O[C@H]1CO)c1ccccn1,2,3[16.7 µM]
COc1ccccc1-c1ccc2c(c1)O[C@@H](CN(C)S(=O)(=O)c1ccccc1)[C@H](C)CN([C@H](C)CO)S2(=O)=O,-5,2[16.7 µM]
C[C@H](CO)N1C[C@H](C)[C@@H](CN(C)Cc2ccccc2)OCCCC[C@H](C)Oc2ccc(NC(=O)Nc3ccccc3)cc2C1=O,8,2[16.7 µM]
CC(C)NC(=O)N[C@H]1CC[C@@H](CCNS(=O)(=O)c2ccc(F)cc2)O[C@H]1CO,6,16[16.7 µM]
CN(C)C(=O)C[C@H]1CC[C@H](NC(=O)NC2CCCCC2)[C@@H](CO)O1,2,-19[16.7 µM]
Cc1noc(C)c1NC(=O)N1C[C@H](O)COC[C@H]2O[C@H](CC(=O)NCC3CC3)CC[C@@H]21,6,u
O=C(C[C@H]1C[C@H]2c3cc(NS(=O)(=O)c4ccccc4)ccc3O[C@H]2[C@@H](CO)O1)N1CCCCC1,27,20[16.7 µM]
COc1ccc(C#Cc2cnc3c(c2)C(=O)N([C@H](C)CO)C[C@@H](C)[C@@H](CN(C)C(=O)Nc2cccc(OC)c2)O3)cc1,2,28[16.7 µM]
O=C(C[C@@H]1C=C[C@@H](NC(=O)CC2CC2)[C@H](CO)O1)NCc1ccc(Cl)cc1,-20,55*[16.7 µM]
O=C(N[C@H]1CC[C@H](CC(=O)N2CCC(Cc3ccccc3)CC2)O[C@H]1CO)c1cnccn1,-1,-1[16.7 µM]
C[C@@H]1CN([C@H](C)CO)C(=O)c2cc(NC(=O)CCCN(C)C)ccc2O[C@@H](C)CCCCO[C@@H]1CN(C)C(=O)NC1CCCCC1,7,18[16.7 µM]
C[C@@H]1CCCCO[C@H](CN(C)S(=O)(=O)c2ccc(Cl)cc2)[C@H](C)CN([C@@H](C)CO)C(=O)c2cc(NS(=O)(=O)c3cn(C)cn3)ccc2O1,4,-2[16.7 µM]
C[C@H](CO)N1C[C@H](C)[C@@H](CN(C)Cc2cccc(C(=O)O)c2)Oc2ncc(C#CC(C)(C)O)cc2C1=O,3,-7[16.7 µM]
C[C@@H]1CCCCO[C@@H](CN(C)C(=O)NC2CCCCC2)[C@H](C)CN([C@H](C)CO)C(=O)c2cc(NC(=O)c3ccncc3)ccc2O1,-2,-90[16.7 µM]
O=C(N[C@H]1CC[C@H](CCn2cc(Cc3ccccc3)nn2)O[C@@H]1CO)c1ccccn1,-19,5[16.7 µM]
C[C@@H]1CN([C@H](C)CO)C(=O)c2cc(NC(=O)Cc3cn(C)c4ccccc34)ccc2O[C@@H]1CN(C)S(=O)(=O)c1ccc(F)cc1,-13,-17[16.7 µM]
CCC(=O)N(C)C[C@H]1Oc2ncc(C#CCC(C)C)cc2C(=O)N([C@@H](C)CO)C[C@@H]1C,-2,8[16.7 µM]
CNC(=O)C[C@@H]1CC[C@H]2[C@H](COc3ccc(NC(=O)c4ccccc4OC)cc3C(=O)N2C)O1,4,16[16.7 µM]
Cc1noc(C)c1S(=O)(=O)Nc1ccc2c(c1)CC(=O)N([C@@H](C)CO)C[C@H](C)[C@H](CN(C)C(=O)NC1CCCCC1)O2,-6,10[16.7 µM]
COc1ccc(CN(C)C[C@@H]2OCCCC[C@H](C)Oc3ccc(NC(=O)Nc4c(C)noc4C)cc3C(=O)N([C@H](C)CO)C[C@@H]2C)cc1,3,-1[16.7 µM]
C/C=C/c1cnc2c(c1)C(=O)N([C@H](C)CO)C[C@H](C)[C@H](CN(C)Cc1cncnc1)O2,-7,-11[16.7 µM]
O=C(C[C@H]1CC[C@@H]2[C@H](COC[C@@H](O)CN2Cc2ccc(F)cc2)O1)NCc1ccncn1,-7,3[16.7 µM]
C[C@@H]1CCCCO[C@@H](CN(C)C(=O)c2ccccc2)[C@H](C)CN([C@H](C)CO)C(=O)c2cc(NC(=O)Nc3ccc(F)cc3)ccc2O1,-9,-8[16.7 µM]
CC(C)NC(=O)N(C)C[C@@H]1Oc2cc(-c3cncnc3)ccc2S(=O)(=O)N([C@@H](C)CO)C[C@H]1C,-3,-29[16.7 µM]
C[C@@H]1CN([C@@H](C)CO)C(=O)c2cc(-c3cccc(F)c3)cnc2O[C@H]1CN(C)S(C)(=O)=O,13,0[16.7 µM]
C[C@H]1CN([C@@H](C)CO)S(=O)(=O)c2ccc(-c3cccnc3)cc2O[C@@H]1CN(C)Cc1cccnc1,-15,7[16.7 µM]
O=C(NCc1ccccc1)[C@@]1(CCS(=O)(=O)c2ccccc2)N=C(c2ccc(OCCCO)cc2)O[C@H]1c1ccccc1,2,5[16.7 µM]
C[C@H]1CN([C@@H](C)CO)S(=O)(=O)c2ccc(C#CC3CC3)cc2O[C@@H]1CN(C)C(=O)Cc1ccncc1,-7,-7[16.7 µM]
C[C@@H]1CN([C@H](C)CO)C(=O)c2cccc(N(C)C)c2O[C@H]1CN(C)C,21,-1[16.7 µM]
COc1ccccc1NC(=O)N[C@@H]1CC[C@H](CCn2cc(-c3ccccc3)nn2)O[C@H]1CO,3,-19[16.7 µM]
# (list continues)
SMILES,UUG fidelity,HIV Env fusion
CNC[C@H]1OCCCC[C@@H](C)Oc2ccc(NS(=O)(=O)c3cn(C)cn3)cc2C(=O)N([C@H](C)CO)C[C@@H]1C,-6,-12[16.7 µM]
COc1ccc(NC(=O)Nc2ccc3c(c2)C(=O)N([C@@H](C)CO)C[C@@H](C)[C@@H](CN(C)C(=O)Nc2ccc(F)cc2)OCCCC[C@@H](C)O3)cc1,-14,1[16.7 µM]
C[C@H]1CCCCO[C@H](CN(C)Cc2ccc(C(F)(F)F)cc2)[C@@H](C)CN([C@@H](C)CO)C(=O)c2cc(NC(=O)Nc3ccc4c(c3)OCO4)ccc2O1,13,60*[16.7 µM]
C[C@@H](NC(=O)C[C@@H]1C=C[C@H](NC(=O)C2CCC2)[C@H](CO)O1)c1ccccc1,-12,-4[16.7 µM]
Cc1noc(C)c1NC(=O)N(C)C[C@@H]1OCCCC[C@H](C)Oc2ccc(NS(=O)(=O)c3ccc(F)cc3)cc2C(=O)N([C@@H](C)CO)C[C@H]1C,11,10[16.7 µM]
COc1ccccc1S(=O)(=O)N[C@@H]1CC[C@H](CCNC(=O)C2CCCC2)O[C@@H]1CO,-2,-18[16.7 µM]
C[C@@H]1CN([C@H](C)CO)C(=O)c2cc(C#CCN(C)C)cnc2O[C@@H]1CN(C)Cc1ccccn1,-18,-23[16.7 µM]
CC(C)NC(=O)N(C)C[C@@H]1OCCCC[C@H](C)Oc2ccc(NC(=O)Nc3ccc(F)cc3)cc2C(=O)N([C@H](C)CO)C[C@@H]1C,1,-42[16.7 µM]
COCC#Cc1cnc2c(c1)C(=O)N([C@H](C)CO)C[C@@H](C)[C@@H](CN(C)Cc1ccccc1)O2,5,-4[16.7 µM]

# 9 successive records already listed:
SMILES,UUG fidelity,HIV Env fusion
C[C@H]1CN([C@@H](C)CO)S(=O)(=O)c2ccc(C#CC3CC3)cc2O[C@@H]1CN(C)C(=O)Cc1ccncc1,-7,-7[16.7 µM]
C[C@@H]1CN([C@H](C)CO)C(=O)c2cccc(N(C)C)c2O[C@H]1CN(C)C,21,-1[16.7 µM]
COc1ccccc1NC(=O)N[C@@H]1CC[C@H](CCn2cc(-c3ccccc3)nn2)O[C@H]1CO,3,-19[16.7 µM]
CNC[C@H]1OCCCC[C@@H](C)Oc2ccc(NS(=O)(=O)c3cn(C)cn3)cc2C(=O)N([C@H](C)CO)C[C@@H]1C,-6,-12[16.7 µM]
COc1ccc(NC(=O)Nc2ccc3c(c2)C(=O)N([C@@H](C)CO)C[C@@H](C)[C@@H](CN(C)C(=O)Nc2ccc(F)cc2)OCCCC[C@@H](C)O3)cc1,-14,1[16.7 µM]
C[C@H]1CCCCO[C@H](CN(C)Cc2ccc(C(F)(F)F)cc2)[C@@H](C)CN([C@@H](C)CO)C(=O)c2cc(NC(=O)Nc3ccc4c(c3)OCO4)ccc2O1,13,60*[16.7 µM]
C[C@@H](NC(=O)C[C@@H]1C=C[C@H](NC(=O)C2CCC2)[C@H](CO)O1)c1ccccc1,-12,-4[16.7 µM]
Cc1noc(C)c1NC(=O)N(C)C[C@@H]1OCCCC[C@H](C)Oc2ccc(NS(=O)(=O)c3ccc(F)cc3)cc2C(=O)N([C@@H](C)CO)C[C@H]1C,11,10[16.7 µM]
COc1ccccc1S(=O)(=O)N[C@@H]1CC[C@H](CCNC(=O)C2CCCC2)O[C@@H]1CO,-2,-18[16.7 µM]
